RN4220 kill: kills Staphylococcus aureus RN4220; S. aureus RN4220 growth, OD600, 16 h; inhibition, % (test concentration not listed); 330,000 compounds, 0.33% hits; AID 1259311;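 active = z-score of -3 or lower and OD600 up to 0.18 on both plates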;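 also: plate controls were untreated cells for no effect and reference antibiotic for full effect; stock transfer was 100 nL into about 80 µL; one replicate is shown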
Sa ugtP lethal: kills S. aureus RN4220 lacking UgtP; 330,000 compounds, 0.54% hits; AID 1259309; growth inhibition, % (no concentration beside the values); S. aureus RN4220 ugtP deletion, OD600 growth, 16 h; some inactives read as strong as hits;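 active = z-score under -3 and OD600 up to 0.15 on both plates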;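 also: plate controls were untreated wells for no effect and antibiotic for full effect; wells of about 80 µL received 100 nL stock; the first replicate is given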
PrP 5UTR inh: inhibition of PrP 5' UTR reporter expression; cell-based PrP 5' UTR mRNA reporter, plate reader; inhibition, % (no concentration beside the values); 340,000 compounds, 0.35% hits;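 active = every replicate at 50% or more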;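 also: 0 = median of the neutral control wells; tested in H4 reporter cells; numbers are from one replicate; inactives centre near -14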
Bead autofluor: counter-screen for toxin protease inhibitors: compound fluorescence | fluorescence intensity (test concentration not listed) | AID 624483 | 360,000 compounds, 3.1% hits | compound autofluorescence counterscreen, microsphere flow cytometry; hits give high values;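 active = at least 3 SD above the mean of all compounds, about 16000 in these data; inconclusive = too few beads counted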;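 also: 100 nL of 1 mM stock went into each well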
BJeLR lethal: kills HRASV12-expressing BJeLR cells; 300,000 compounds, 0.17% hits; BJeLR (HRASV12) viability, CellTiter-Glo ATP luminescence, 48 h; reference of the scale not given here; inhibition, % (test concentration not listed);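 active = replicate mean above 50%; inconclusive = above 50% but judged a plate artefact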;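 also: 50 nL library stock added to about 25 µL; numbers are from one replicate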
Mtb hypoxia rep: reduces hypoxia-regulated biosensor signal in M. tuberculosis. M. tuberculosis hypoxia-regulated fluorescent reporter, fluorescence. fluorescence inhibition, % (test concentration not listed). 300,000 compounds, 0.1% hits. AID 1159583;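 active = 35 to 45% if threefold the growth effect, above 45% if 1.5-fold the growth effect; inactive = the rest, general growth blockers included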;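 also: wells of about 50 µL received 100 nL stock; 0% = vehicle wells and 100% = reference inhibitor wells; whole bacteria with a GFP reporter of the hypoxia response; strong numbers were not always called active; many hits fall short of the cut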
Mtb hypoxia rep growth: also measured in Mtb hypoxia rep; calls as there; growth inhibition, %; measured here: M. tuberculosis growth (absorbance);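 0% = vehicle and 100% = reference antibiotic; read after six days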
Starred values were filed as active, the others as inactive; ? = inconclusive; nt = no result given.

cpd	Molecule	RN4220 kill	Sa ugtP lethal	PrP 5UTR inh	Bead autofluor	BJeLR lethal	Mtb hypoxia rep	Mtb hypoxia rep growth
1	COc1cc(OC)cc(C(=O)NNC(=O)CN2C(=O)NC(C)(c3ccccc3)C2=O)c1 (stereo unspecified)	5.6	1	-5	4577	2	9	0
2	Cc1cc2oc(=O)c(CC(=O)O)c(C)c2c2occ(C(C)(C)C)c12	18	5	-9	3802	2	-6	10
3	COc1ccc(NC(=O)C(CC(=O)O)Cc2ccccc2)cc1 (stereo unspecified)	2.9	6	-17	22396*	3	1	0
4	O=C(CSc1ncn[nH]1)c1ccc(OC(F)F)cc1	0.2	5	-10	4355	2	5	14
5	Cc1ccc(CCNC(=O)C2CCN(S(=O)(=O)c3ccc4c(c3)NC(=O)C(C)S4)CC2)cc1 (stereo unspecified)	0.3	5	-18	4280	5	1	1
6	CC(C)C(NC(=O)NCc1cccs1)C(=O)O (stereo unspecified)	-0.1	-9	nt	nt	nt	-2	14
7	Cc1cnn(-c2ccc3nnc(-c4ccc(Br)cc4)n3n2)c1	2.7	0	5	3322	4	5	2
8	O=[N+]([O-])c1ccccc1Nc1cccc(F)c1	7.3	-3	-24	3811	nt	5	3
9	CC1=CCC2C(=O)N(c3cc(C)on3)C(=O)C2C1 (stereo unspecified)	-13	-6	-21	2777	1	18	8
10	O=C(c1cc(Br)c[nH]1)N1CCSCC1	-0.4	-4	nt	4145	3	6	1

(continued)
cpd	Molecule	RN4220 kill	Sa ugtP lethal	PrP 5UTR inh	Bead autofluor	BJeLR lethal	Mtb hypoxia rep	Mtb hypoxia rep growth
11	CCn1nnnc1SCC(=O)Nc1cccc(NC(C)=O)c1	3.6	9	-10	14834	-11	0	9
12	CC(C)(C)c1ccc2c(c1)OCC(C(=O)O)O2 (stereo unspecified)	13	2	-44	5216	-5	0	5
13	CS(=O)(=O)c1ccc(Cl)c(NC(=O)COC(=O)CNC(=O)c2ccc(Br)o2)c1	0.3	-3	-10	4857	-9	9	16
14	CCOC(=O)C1=C(C)Nc2ncnn2C1c1ccccc1F (stereo unspecified)	4.2	4	-32	2484	-4	9	10
15	COc1ccc(C(=O)COc2ccc(C(C)=O)cc2OC)cc1OC	3.7	7	-10	3678	nt	-3	8
16	Nc1nonc1-n1nnc(C(=O)N/N=C/c2ccccc2F)c1CN1CCOCC1	nt	nt	-17	7250	7	nt	nt
17	Cc1ccc(F)cc1NC(=O)CCOc1ccccc1	4.1	7	-11	4291	-6	10	11
18	Cc1ccc(C)c(N2CCN(C(=O)C3CCC3)CC2)c1	5.7	7	-7	3566	-3	1	6
19	CCc1cccc(OCC(=O)Nc2cc(S(=O)(=O)N3CCOCC3)ccc2N2CCCC2)c1	5.9	6	-11	5823	0	10	5
20	O=C(CN(C(=O)CNS(=O)(=O)c1ccc(F)cc1)C1CCCC1)NCc1ccco1	4.7	-3	-23	3961	-1	14	-2

The list continues.
cpd	Molecule	RN4220 kill	Sa ugtP lethal	PrP 5UTR inh	Bead autofluor	BJeLR lethal	Mtb hypoxia rep	Mtb hypoxia rep growth
21	Cc1nn(-c2ccccc2)c2c1C(c1ccc([N+](=O)[O-])cc1)N1C(=N2)C(=O)Nc2ccccc21 (stereo unspecified)	-0.9	7	-13	2030	-7	-1	-3
22	Cc1ccc(CS(=O)(=O)CCC(=O)NCCN(C)Cc2ccccc2)cc1	3.8	9	-8	23874*	-9	15	4
23	CCOc1ccccc1N(C(=O)Nc1cccc(Cl)c1)C1=NC(C)CS1 (stereo unspecified)	-1.5	19	-16	2613	5	-7	-2
24	CC(=NNC(=O)c1ccc2c(c1)OCO2)c1ccc(C(=O)O)s1	2.7	1	nt	nt	nt	4	7
25	CCOC(=O)c1sc(NC(C)=O)nc1-c1ccccc1	5.7	5	-12	8486	13	8	7
26	Cc1nc(-c2ccccc2)sc1C1(C)CC(c2ccc(C#N)cc2)=NO1 (stereo unspecified)	4.3	4	-21	3736	1	2	9
27	CC(CCc1ccccc1)NC(=O)CSc1nccc(=O)[nH]1 (stereo unspecified)	4.6	4	-58	3302	2	8	9
28	Cc1ccc(S(=O)(=O)N2CCN(CC(=O)N/N=C\c3ccccn3)CC2)cc1	nt	nt	-13	4075	2	nt	nt
29	CN(C)CCOC(=O)c1cccc(Br)c1	2.5	0	-43	2619	-3	nt	nt
30	COc1cccc(C2C(C(N)=O)=C(C)Nc3nc(-c4ccccc4Cl)nn32)c1 (stereo unspecified)	4.0	6	-9	5363	-1	nt	nt

Retrieved by compound from above, 2 records:
cpd	Molecule	RN4220 kill	Sa ugtP lethal	PrP 5UTR inh	Bead autofluor	BJeLR lethal	Mtb hypoxia rep	Mtb hypoxia rep growth
30	COc1cccc(C2C(C(N)=O)=C(C)Nc3nc(-c4ccccc4Cl)nn32)c1 (stereo unspecified)	4.0	6	-9	5363	-1	nt	nt
22	Cc1ccc(CS(=O)(=O)CCC(=O)NCCN(C)Cc2ccccc2)cc1	3.8	9	-8	23874*	-9	15	4

Next results
cpd	Molecule	RN4220 kill	Sa ugtP lethal	PrP 5UTR inh	Bead autofluor	BJeLR lethal	Mtb hypoxia rep	Mtb hypoxia rep growth
31	CC[C@H](C)C(C(=O)N1CCN(C(=O)OC(C)(C)C)CC1)n1cc(C(CC(C)C)NC(=O)OC(C)(C)C)nn1 (stereo partly specified)	nt	nt	-26	3374	-10	nt	nt
32	COc1ccc(-c2nnc(SC(C)C(=O)NC3CC3)o2)cc1 (stereo unspecified)	0.8	0	-22	2922	nt	-1	2
33	C/C=C(/C)C(=O)Nc1cccc(C2=NOC3(C2)C[C@H](C(N)=O)N(C(=O)c2ccc(Cl)cc2)C3)c1 (stereo partly specified)	nt	nt	-32	3678	0	nt	nt
34	CC(C)(O)C#Cc1ccc(C(=O)N2CCCC(CCC(=O)NCc3ccccc3F)C2)cc1 (stereo unspecified)	7.0	16	-31	4536	6	5	-4
35	Cc1ccsc1C(=O)NNC(=O)c1ccncc1	6.2	12	-28	4586	nt	5	-7
36	O=C(c1ccco1)N1CCN(c2ccc(N3CCCCC3)nn2)CC1	3.5	6	-60	?	1	11	4
37	COC(=O)c1[nH]c2ccc(C)cc2c1NC(=O)CN1CCN(c2ccc(F)cc2)CC1	-2.6	-4	-18	4075	6	11	3
38	CCCC(=O)Nc1ccc(C(=O)NN2C(=O)c3ccccc3C2=O)cc1	1.5	1	-30	2496	10	-4	4
39	Cc1cccc(N2C(=O)N3C(c4ccc(Br)cc4)C4C(=O)N(C(C)(C)C)C(=O)C4[C@]3(Cc3ccc(Cl)cc3)C2=O)c1 (stereo partly specified)	5.3	3	nt	nt	nt	4	-5
40	CCCOC(=O)c1ccc(OC(=O)c2ccco2)cc1	24	3	-34	10895	6	5	9

Later entries:
cpd	Molecule	RN4220 kill	Sa ugtP lethal	PrP 5UTR inh	Bead autofluor	BJeLR lethal	Mtb hypoxia rep	Mtb hypoxia rep growth
41	O=C(CSc1nnc(NC(=O)C2CC2)s1)NCc1ccc(F)cc1	-3.8	7	-12	?	-1	15	5
42	O=C(COc1ccc2ccc(=O)oc2c1)Nc1ccc(N2CCCCC2)cc1	1.1	9	-28	3046	nt	1	-5
43	O=C(CNc1cccc2ccccc12)N/N=C/c1ccc[nH]1	nt	nt	-14	5300	5	nt	nt
44	CC(=O)N1c2ccc(S(=O)(=O)N(C)CC(=O)N3CCCC3)cc2CC1C (stereo unspecified)	4.1	8	-14	5962	-3	6	8
45	Nc1nnn(CC(=O)N/N=C/c2ccc(O)cc2)n1	nt	nt	-8	4741	0	nt	nt
46	Cc1ccc(NC(=O)NCc2cccn2C)cc1C	0.7	2	-43	4112	0	1	-4
47	O=C(c1cc2c(s1)CCCC2)N1CCN(CCO)CC1	3.2	3	-32	3876	nt	6	4
48	COc1ccc(C=NN2CCOCC2)cc1OCc1ccccc1	2.4	-1	nt	nt	nt	2	0
49	CC(C)(C)Nc1nc(SCc2ccccc2)nc(N2CCOCC2)n1	-15	29	-8	23358*	1	2	5
50	NS(=O)(=O)c1cccc(NC(=O)CSc2nnc3n2CCCCC3)c1	7.3	8	-9	3857	nt	0	1

Remaining list, next part:
cpd	Molecule	RN4220 kill	Sa ugtP lethal	PrP 5UTR inh	Bead autofluor	BJeLR lethal	Mtb hypoxia rep	Mtb hypoxia rep growth
51	C=CCc1c(C)nc2cc(-c3ccccc3)[nH]n2c1=O	0.8	9	-43	4104	3	-6	3
52	CCC(=O)OC1c2ccccc2C(=O)N1Cc1ccccc1 (stereo unspecified)	25	18	-6	6079	0	-3	-5
53	CCCCCOc1ccc(NC(=O)c2cc(SC)ccc2Cl)cc1	6.5	-10	-41	7897	2	2	4
54	COc1cccc(NC(=O)c2nn(C)cc2Br)c1	5.7	-4	-4	2938	3	7	5
55	COc1ccc(S(=O)(=O)N2CCN(c3ccccc3OC)CC2)cc1OC	0.2	1	-9	3840	6	nt	nt
56	Cc1ccc(CS(=O)(=O)CCC(=O)N2CCOCC2)cc1	2.7	4	-13	5632	-4	9	5
57	COc1ccccc1/C=C/C=N/N1CCN(Cc2cccc3ccccc23)CC1	nt	nt	-8	2520	-3	nt	nt
58	COc1ccc(OC)c(C2C(C(C)=O)=C(O)C(=O)N2Cc2cccnc2)c1 (stereo unspecified)	4.0	1	-13	6784	-2	5	13
59	CC(=O)c1c(C)oc2ccc(N(C(C)=O)S(=O)(=O)c3cccc4cccnc34)cc12	2.3	1	-25	5067	7	-10	-3
60	NC(=O)c1c(NC(=O)c2ccccc2)sc2c1CCN(Cc1ccccc1)C2	-6.7	-4	-26	5985	-12	-3	6

Other records
cpd	Molecule	RN4220 kill	Sa ugtP lethal	PrP 5UTR inh	Bead autofluor	BJeLR lethal	Mtb hypoxia rep	Mtb hypoxia rep growth
61	Clc1ccccc1CSc1nnc([C@@H]2CCCN2)o1	3.8	10	-10	3849	-4	-2	-3
62	Cc1ccc(Cn2c(SCC(=O)NCc3ccco3)nc3ccsc3c2=O)cc1	3.7	-1	-15	11634	5	7	6
63	Cc1ccc(S(=O)(=O)c2cn(CC(=O)Nc3ccccc3)c3ccc(F)cc3c2=O)cc1	nt	nt	26	6065	-10	nt	nt
64	Cc1ccccc1Nc1nnc(-c2ccc(C(=O)NCCO)cc2)c2ccccc12	3.6	-3	3	2717	-4	-6	-6
65	O=C(Nc1ccc(NC(=O)c2ccccc2Cl)nc1)c1ccco1	-7.1	11	-20	5925	7	6	5
66	CCc1ccc(NS(=O)(=O)c2ccc(C)c(C(=O)N3CCOCC3)c2)cc1	1.7	-3	-8	6286	7	-8	2
67	Cc1ccc(Nc2ncc3c(n2)CC(C)(C)CC3=O)cc1	-2.9	-7	-73	4201	1	-2	7
68	COc1ccc(-n2c(SCC(=O)N3CCCCC3)nnc2-c2cccnc2)cc1	1.5	3	-18	8520	-7	4	3
69	O=C(CN1C(=O)NC2(CCCCC2)C1=O)Nc1ccc(N2CCCCC2)cc1	5.1	9	-13	3166	nt	12	8
70	Cc1nn2c(N3CCCC3)c3c(nc2c1-c1ccccc1)CCC3	6.6	10	nt	nt	8	12	20

(further entries)
cpd	Molecule	RN4220 kill	Sa ugtP lethal	PrP 5UTR inh	Bead autofluor	BJeLR lethal	Mtb hypoxia rep	Mtb hypoxia rep growth
71	N#CCN1CCN(CC(=O)Nc2cccc3ccccc23)CC1	4.6	4	-20	4283	-6	6	6
72	COC(=O)c1ccc2c(=O)n(CCCCCC(=O)NCc3ccccn3)c(=O)[nH]c2c1	5.3	11	-16	6440	-3	5	2
73	CCOC(=O)/C(C#N)=C/c1ccc(OCC(=O)Nc2ccccc2)c(OC)c1	4.5	3	-61	3016	-8	5	5
74	CCS(=O)(=O)Nc1ccc(C2=NN(C(=O)c3ccco3)C(c3cccc(F)c3)C2)cc1 (stereo unspecified)	2.1	-13	-28	2506	-8	-12	0
75	Cc1ccc(S(=O)(=O)Cn2nnnc2CN2CCN(C(=O)c3ccco3)CC2)cc1	0.1	9	-1	3300	-3	nt	nt

Assay outcomes from PubChem BioAssay.
